rRNA inh HTS – reduced GFP signal of wild-type E. coli, primary screen, bacterial rRNA inhibitor project, GFP/RFP fluorescence, OD600, single point | GFP signal change (wild-type ribosome), % (no concentration beside the values) | AID 720706, 2013 | 350,000 compounds, 1.6% hits | E. coli WT GFP vs humanized-ribosome RFP mutants, 24 h; hits give low values; DMSO median 0, no signal -100;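 active means significant combined selectivity score with lowered wild-type GFP, culture density cut under 30%, mutant RFP and density less affected; inactive means any of these conditions unmet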; further: one replicate is shown; some compounds called inactive have numbers as strong as hits
rRNA inh HTS OD600 – second read-out of rRNA inh HTS, no call of its own (marks repeat the call); OD600 change, %; measured here: OD600 growth;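 optical density of the mix in the first replicate; 0 = DMSO median and -100 = no signal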
rRNA inh HTS RFP – also measured in rRNA inh HTS; calls as there; RFP signal change, %; measured here: RFP humanized mutant strains;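 first replicate; 0 = DMSO median and -100 = no signal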
Active calls of the source: *.

`CN(C)CC(=O)N1[C@H](C#N)[C@H](c2ccccc2-c2ccc(C(=O)N(C)C)cc2)[C@H]1CO` gave rRNA inh HTS 11, rRNA inh HTS OD600 22 and rRNA inh HTS RFP -0.5.
For CO[C@@H]1CN(C)C(=O)c2cc(NS(=O)(=O)CC(F)(F)F)ccc2OC[C@H](C)N(Cc2nccs2)C[C@H]1C the results were rRNA inh HTS -2, rRNA inh HTS OD600 0 and rRNA inh HTS RFP -2.2.
`C[C@@H]1CN([C@H](C)CO)C(=O)c2cc(NC(=O)Cc3ccccc3)ccc2O[C@@H]1CN(C)Cc1ccc(-c2ccccc2)cc1` gave rRNA inh HTS 1, rRNA inh HTS OD600 1 and rRNA inh HTS RFP 12.
COc1cccc(S(=O)(=O)N(C)C[C@H]2OCc3cn(nn3)CCCC(=O)N([C@H](C)CO)C[C@H]2C)c1 was read as rRNA inh HTS -2, rRNA inh HTS OD600 0 and rRNA inh HTS RFP 0.8.
Screening C[C@H]1CN([C@@H](C)CO)S(=O)(=O)c2ccc(/C=C/c3ccccc3)cc2O[C@@H]1CN(C)C(=O)Nc1cc(F)ccc1F returned rRNA inh HTS -4, rRNA inh HTS OD600 5 and rRNA inh HTS RFP 1.2.
For C[C@@H]1CN([C@H](C)CO)S(=O)(=O)c2ccc(-c3ccc(F)cc3)cc2O[C@@H]1CN(C)C(=O)C1CCC1 the results were rRNA inh HTS -10, rRNA inh HTS OD600 -41 and rRNA inh HTS RFP 3.6.
`CC(C)NC(=O)Nc1cccc2c1O[C@@H](CN(C)S(=O)(=O)c1cccs1)[C@H](C)CN([C@H](C)CO)C2=O` gave rRNA inh HTS 2, rRNA inh HTS OD600 2 and rRNA inh HTS RFP -1.1.
For C[C@@H]1CCCCO[C@H](CN(C)CC2CC2)[C@H](C)CN([C@@H](C)CO)C(=O)c2cc(NC(=O)C3CCCCC3)ccc2O1 the results were rRNA inh HTS 0, rRNA inh HTS OD600 5 and rRNA inh HTS RFP -0.2.
For CC(=O)N(C)C[C@@H]1Oc2ncccc2C(=O)N(C)C[C@@H]1C the results were rRNA inh HTS 0, rRNA inh HTS OD600 1 and rRNA inh HTS RFP 0.2.
C[C@H]1CC(=O)N[C@H](c2ccccc2)C/C=C\C[C@@H](c2ccc3c(c2)OCO3)NC1=O was read as rRNA inh HTS -1, rRNA inh HTS OD600 3 and rRNA inh HTS RFP 1.5.
COCC(=O)N1CC2(C1)[C@@H](c1ccc(-c3ccc(F)cc3)cc1)[C@H](CO)N2C(C)=O was read as rRNA inh HTS -1, rRNA inh HTS OD600 3 and rRNA inh HTS RFP -2.2.
COc1ccc2c3c(n(C)c2c1)[C@H](CO)N(C)CC31CCN(S(C)(=O)=O)CC1 was read as rRNA inh HTS -5, rRNA inh HTS OD600 -4 and rRNA inh HTS RFP -2.4.
`Cc1ccc(S(=O)(=O)Nc2ccc3c(c2)C(=O)N([C@H](C)CO)C[C@@H](C)[C@@H](CN(C)C(=O)Nc2ccc4c(c2)OCO4)O3)cc1` gave rRNA inh HTS -3, rRNA inh HTS OD600 -2 and rRNA inh HTS RFP 0.3.
`COc1ccc(C#Cc2ccc3c(c2)[C@@H]2[C@@H](CCN2C(=O)c2ccccc2F)[C@H](CO)N3C)cc1` gave rRNA inh HTS 6, rRNA inh HTS OD600 8 and rRNA inh HTS RFP 8.1.
C[C@H]1CN([C@@H](C)CO)C(=O)CCCn2nncc2CO[C@H]1CN(C)Cc1ccncc1 was read as rRNA inh HTS -3, rRNA inh HTS OD600 -1 and rRNA inh HTS RFP -0.7.
`C[C@H](CO)N1C[C@H](C)[C@@H](CN(C)Cc2ccccc2)OCc2ccccc2-c2c(n(C)c3ccccc23)C1=O` gave rRNA inh HTS -57, rRNA inh HTS OD600 -66 and rRNA inh HTS RFP -9.7.
C[C@H]1CN([C@@H](C)CO)C(=O)c2cccc(NC(=O)Nc3ccccc3)c2O[C@H]1CN(C)S(=O)(=O)c1cccs1 was read as rRNA inh HTS -1, rRNA inh HTS OD600 1 and rRNA inh HTS RFP 1.1.
C[C@H]1CN([C@@H](C)CO)C(=O)c2cc(C#CC3CC3)cnc2O[C@@H]1CN(C)C(=O)C1CCCCC1 was read as rRNA inh HTS -2, rRNA inh HTS OD600 -5 and rRNA inh HTS RFP 3.7.
Screening CNC[C@H]1Oc2ccc(NC(C)=O)cc2CC(=O)N(C)C[C@@H]1C returned rRNA inh HTS 1, rRNA inh HTS OD600 8 and rRNA inh HTS RFP 0.0.
Screening Cc1noc(C)c1NC(=O)N(C)C[C@H]1Oc2ccc(NS(=O)(=O)c3ccc(F)cc3)cc2CC(=O)N([C@H](C)CO)C[C@@H]1C returned rRNA inh HTS 1, rRNA inh HTS OD600 -2 and rRNA inh HTS RFP -0.3.
Screening CC[C@@H]1C/C=C\C[C@@H](c2ccc(F)cc2)NC(=O)CCC(=O)N1 returned rRNA inh HTS 0, rRNA inh HTS OD600 12 and rRNA inh HTS RFP -1.4.
CCCNC(=O)N1[C@@H](CO)[C@H](c2ccc(C3=CCCC3)cc2)[C@@H]1CNC(C)=O was read as rRNA inh HTS 2, rRNA inh HTS OD600 4 and rRNA inh HTS RFP 1.8.
C[C@@H]1C(=O)N[C@H](c2ccc3c(c2)OCO3)CC=CC[C@H](C)Oc2ccccc2C(=O)N1C (mixture of isomers) was read as rRNA inh HTS -3, rRNA inh HTS OD600 -10 and rRNA inh HTS RFP 0.8.
For COc1ccc([C@H]2C/C=C\C[C@@H](c3ccc4c(c3)OCO4)NC(=O)[C@@H](c3ccccc3)CC(=O)N2)c(OC)c1 the results were rRNA inh HTS -1, rRNA inh HTS OD600 -7 and rRNA inh HTS RFP 1.2.
`CO[C@H]1CN(C)C(=O)c2cc(NC(=O)C3CC3)ccc2OC[C@@H](C)N(C(=O)c2ccccn2)C[C@H]1C` gave rRNA inh HTS -2, rRNA inh HTS OD600 1 and rRNA inh HTS RFP 0.7.
`O=S(=O)(c1ccccc1)N1CC[C@@H]2[C@H]1c1cc(-c3ccccc3F)ccc1N[C@@H]2CO` gave rRNA inh HTS -7, rRNA inh HTS OD600 -48 and rRNA inh HTS RFP 30.
C[C@@H]1CN([C@@H](C)CO)C(=O)c2c(c3ccccc3n2C)-c2ccccc2CO[C@@H]1CN(C)C(=O)Cc1ccccc1 was read as rRNA inh HTS 0, rRNA inh HTS OD600 -9 and rRNA inh HTS RFP 5.2.
For C[C@H]1CN([C@@H](C)CO)C(=O)Cc2cc(NS(=O)(=O)c3ccc(Cl)cc3)ccc2O[C@@H]1CN(C)C(=O)Nc1ccc2c(c1)OCO2 the results were rRNA inh HTS 0, rRNA inh HTS OD600 7 and rRNA inh HTS RFP -1.0.
`Cc1cccc(CN(C)C[C@H]2OCc3cnnn3CCCC(=O)N([C@@H](C)CO)C[C@H]2C)c1` gave rRNA inh HTS 0, rRNA inh HTS OD600 -2 and rRNA inh HTS RFP 1.1.
`C[C@H]1CN([C@@H](C)CO)C(=O)Cc2cc(NC(=O)Cn3cnnn3)ccc2O[C@H]1CN(C)C(=O)Nc1ccc(F)cc1` gave rRNA inh HTS 3, rRNA inh HTS OD600 3 and rRNA inh HTS RFP -1.3.
`O=C(Nc1ccc(F)cc1)N1C[C@H]2[C@@H](c3ccccc31)[C@H](CO)N2C(=O)c1ccc(F)cc1` gave rRNA inh HTS -1, rRNA inh HTS OD600 7 and rRNA inh HTS RFP 1.5.
For COc1ccc2c3c([nH]c2c1)[C@@H](CO)N(C(=O)C1CCCCC1)CC31CN(C(=O)c2ccncc2)C1 the results were rRNA inh HTS -3, rRNA inh HTS OD600 14 and rRNA inh HTS RFP -0.1.
For COc1ccc(S(=O)(=O)N(C)C[C@@H]2Oc3c(NC(=O)Nc4ccccc4)cccc3C(=O)N([C@@H](C)CO)C[C@H]2C)cc1 the results were rRNA inh HTS -3, rRNA inh HTS OD600 -8 and rRNA inh HTS RFP 2.2.
COc1cccc(C#Cc2ccc3c(c2)[C@@H]2[C@@H](CCN2C(C)=O)[C@@H](CO)N3)c1 was read as rRNA inh HTS 1, rRNA inh HTS OD600 5 and rRNA inh HTS RFP 1.2.
C[C@H]1CN([C@@H](C)CO)C(=O)c2cccc(NS(C)(=O)=O)c2O[C@H]1CN(C)S(=O)(=O)c1ccc(F)cc1 was read as rRNA inh HTS -1, rRNA inh HTS OD600 1 and rRNA inh HTS RFP -0.2.
Screening CCCC(=O)Nc1ccc2c(c1)OC[C@@H](C)N(CCc1ccccc1)C[C@H](C)[C@@H](OC)CN(C)C2=O returned rRNA inh HTS -4, rRNA inh HTS OD600 -9 and rRNA inh HTS RFP 3.4.
C[C@H](CO)N1C[C@H](C)[C@@H](CN(C)S(C)(=O)=O)Oc2ccc(NS(=O)(=O)c3ccc(Cl)cc3)cc2C1=O was read as rRNA inh HTS 4, rRNA inh HTS OD600 6 and rRNA inh HTS RFP -1.0.
For C[C@H](CO)N1C[C@H](C)[C@H](CN(C)Cc2ccc(Oc3ccccc3)cc2)Oc2ccc(NC(=O)C3CCCCC3)cc2C1=O the results were rRNA inh HTS 3, rRNA inh HTS OD600 -14 and rRNA inh HTS RFP 4.2.
C[C@@H]1CN([C@H](C)CO)C(=O)c2ccccc2-c2ccccc2CO[C@@H]1CN(C)C(=O)[C@H](C)c1ccccc1 was read as rRNA inh HTS 1, rRNA inh HTS OD600 -6 and rRNA inh HTS RFP -1.8.
`CC(C)NC(=O)N(C)C[C@@H]1Oc2ccc(N(S(C)(=O)=O)S(C)(=O)=O)cc2C(=O)N(C)C[C@@H]1C` gave rRNA inh HTS 1, rRNA inh HTS OD600 4 and rRNA inh HTS RFP 1.5.
C[C@@H]1CN([C@@H](C)CO)S(=O)(=O)c2ccc(-c3ccccc3)cc2O[C@H]1CN(C)C(=O)C1CCC1 was read as rRNA inh HTS -14, rRNA inh HTS OD600 -26 and rRNA inh HTS RFP -4.0.
CCC(=O)N1[C@@H](CO)[C@@H](c2ccc(-c3ccccc3)cc2)[C@@H]1CN(C)C(C)=O was read as rRNA inh HTS -2, rRNA inh HTS OD600 -6 and rRNA inh HTS RFP -0.7.
For Cc1cccc(NC(=O)Nc2ccc3c(c2)C(=O)N(C)[C@@H]2CC[C@H](CC(=O)NCc4ccccc4Cl)O[C@H]2CO3)c1 the results were rRNA inh HTS 2, rRNA inh HTS OD600 -1 and rRNA inh HTS RFP -1.8.
Screening CO[C@@H]1CN(C)C(=O)c2ccc(NC(C)=O)cc2OC[C@@H](C)N(C(=O)c2cnccn2)C[C@H]1C returned rRNA inh HTS -2, rRNA inh HTS OD600 0 and rRNA inh HTS RFP -0.9.
`CCCC(=O)N1C[C@H]2[C@@H](c3ccccc31)[C@@H](CO)N2Cc1cocn1` gave rRNA inh HTS 2, rRNA inh HTS OD600 7 and rRNA inh HTS RFP -1.8.
`C[C@@H]1CCCCO[C@H](CN(C)S(=O)(=O)c2ccc(Cl)cc2)[C@@H](C)CN([C@@H](C)CO)C(=O)c2cc(N(C)C)ccc2O1` gave rRNA inh HTS -7, rRNA inh HTS OD600 0 and rRNA inh HTS RFP -0.9.
CC(=O)N1[C@H](CO)[C@H](c2ccc(-c3ccc(F)cc3)cc2)[C@H]1CNC(=O)C1CC1 was read as rRNA inh HTS -5, rRNA inh HTS OD600 -3 and rRNA inh HTS RFP -1.5.
`CC(C)(O)C#Cc1ccc([C@H]2[C@@H](CO)N3CCCCN(S(C)(=O)=O)C[C@H]23)cc1` gave rRNA inh HTS -1, rRNA inh HTS OD600 7 and rRNA inh HTS RFP -3.2.
C[C@H](CO)N1C[C@H](C)[C@@H](CN(C)C(=O)C2CC2)Oc2cc(C#CC(C)(C)O)ccc2S1(=O)=O was read as rRNA inh HTS 1, rRNA inh HTS OD600 10 and rRNA inh HTS RFP -2.7.
Screening Cc1noc(C)c1S(=O)(=O)N(C)C[C@H]1OCc2ccccc2-c2ccccc2C(=O)N([C@@H](C)CO)C[C@@H]1C returned rRNA inh HTS 1, rRNA inh HTS OD600 1 and rRNA inh HTS RFP 0.2.

Assay outcomes from PubChem.

An excerpt; count on the stated rates, not on these rows.
